Source: PubChem
CBX7 inh: CBX7 inhibition, primary AlphaScreen. AID 1224903. 66,000 tested, 1.1% active. O95931. AlphaScreen His6-CBX7 / biotin-H3K27me3 peptide binding; hits give low values. normalised signal (fraction of DMSO) (no concentration beside the values); in the data active = normalised signal below about 0.5;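 note: 100 nL library stock added to about 20 µL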
Target sequence (O95931 whole entry, looked up): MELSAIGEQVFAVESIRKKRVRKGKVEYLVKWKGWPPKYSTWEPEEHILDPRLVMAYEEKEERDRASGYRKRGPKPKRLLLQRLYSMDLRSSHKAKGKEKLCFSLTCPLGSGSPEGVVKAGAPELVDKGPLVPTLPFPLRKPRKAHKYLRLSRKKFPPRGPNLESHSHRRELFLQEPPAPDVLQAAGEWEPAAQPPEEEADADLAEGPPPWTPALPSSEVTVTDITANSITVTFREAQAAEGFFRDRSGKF
CBX7 inh z-score: recorded beside CBX7 inh, whose call it bears; z-score; measured here: z-score of CBX7 signal; some inactives read as strong as hits; reference of the scale not given here;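 same signal on another scale; lower means less binding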
The depositor's hits bear a star; & = joins results of further samples. The list is partial. The share of hits here may be higher or lower than overall.

SMILES	CBX7 inh	CBX7 inh z-score
CCCCOc1ccc(C(=O)Nc2ccc3nc(SCC(=O)N4CCOCC4)sc3c2)cc1	1	0.0367
O=C(NCCCN1CCOCC1)C1CCN(C(=O)c2cnn(-c3ccccc3)c2-n2cccc2)CC1	1.37	0.851
COc1ccccc1CN1C(=O)Cn2cccc2C1C(=O)NC1CCCCC1C (stereo not drawn)	1	0.0561
Cc1ccc(S(=O)(=O)c2cn(Cc3ccc(Cl)cc3)c3ccc(F)cc3c2=O)cc1	1.03	1.27
Cc1ccc(C)c(NC(=O)CSc2nnc(Cc3cc(=O)[nH]c(=O)[nH]3)n2-c2cc(C)ccc2C)c1	1.01	0.0131
COc1ccc2c(c1)c(/C=C/c1nc3ccccc3c(=O)n1-c1ccccc1C)c(C)n2C	1.12	2.97
O=C1CSc2ccc(C(=O)NCCCN3CCN(c4cccc(Cl)c4)CC3)cc2N1	1.14	1.49
COc1ccccc1C1Nc2ccc(C(=O)c3ccccc3)cc2NC2=C1C(=O)CCC2 (stereo not drawn)	0.995	-0.241
CN(C(=O)CCc1nc(-c2ccccc2F)no1)c1ccccc1	1.02	0.89
Cc1cccc(C(=O)N2CC(=O)Nc3ccc(F)cc3C2c2ccccc2)c1 (stereo not drawn)	0.972	-0.795
O=C(CC1Oc2ccccc2NC1=O)NCCCN1CCN(C2CCCCC2)CC1 (stereo not drawn)	1.21	1.2
O=[N+]([O-])c1ccc(-c2cn(-c3ccccc3NCc3ccccc3)cn2)o1	0.483*	-6.66*
O=C(NCc1ccccc1Cl)c1ccc(NC2=NC3CS(=O)(=O)CC3S2)cc1 (stereo not drawn)	1.16	1.2
O=C(NC1CCCCCC1)c1csc2c1CCCCC2	1.07	2.18
Cc1ccc2nc(-c3ccccc3)nc(N3CCOCC3)c2c1	1.17	2.16
CCOC(=O)N1CCN(c2c(NCCCOC)c(=O)c2=O)CC1	1.11	2.01
O=C(c1cccc(NC2=NC3CS(=O)(=O)CC3S2)c1)N1CCN(c2ncccn2)CC1 (stereo not drawn)	0.944	-0.616
CCOc1ccc(NC(=O)CSc2nnc(COc3c(C)cccc3C)o2)cc1	0.997	-0.079
O=C(O)c1cccc(Nc2nc(-c3ccc(Cl)cc3)cs2)c1	0.875&0.753	-2.32&-4.26
CC(C)C(=O)Nc1ncc2c(n1)CC(c1cccs1)CC2=O (stereo not drawn)	1.08	1.02
Cc1ccc(-c2nc3ccccc3c(C(=O)Nc3ccc(Cl)cc3)c2C)cc1	1.08	0.27
CC(=O)N1CCc2cc(S(=O)(=O)Nc3ccc(C)c(C)c3)ccc21	1.04	1.19
Cc1ccc(-c2nn(C)c(=O)c3ccccc23)cc1S(=O)(=O)N1CCN(CCO)CC1	0.976	-0.231
O=C(NCc1ccccn1)c1cc(Sc2ccc(F)cc2)nc2ccccc12	1.03	0.0308
O=C(NCc1cccnc1)c1ccc(Cn2c(=O)[nH]c3ccccc3c2=O)cc1	0.999	-0.00202
Additional entries follow.
SMILES	CBX7 inh	CBX7 inh z-score
COc1ccc(CC(=O)Nc2ccc(S(=O)(=O)Nc3cc(OC)nc(OC)n3)cc2)cc1	1.03	0.89
O=C(Nc1cccc(Cl)c1)c1n[nH]c(=O)c2ccccc12	1.13	0.814
CCN(CC)CCNC(=O)CCC(=O)Nc1ccc2nc(N3CCC(C)CC3)cc(C)c2c1	0.962	-1.67
Fc1cccc(Cn2c(SCc3ccccc3F)nc3ccncc32)c1	1	0.0442
Clc1ccc2nc(-c3ccc(N4CCOCC4)cc3)c(Nc3ccc4c(c3)OCCO4)n2c1	1.14	1.12
COc1ccc(NC(=O)c2cc3c(s2)-c2ccccc2OC3)cc1OC	0.973	-0.768
Cc1ccc(Cl)cc1N1CCN(c2nc3ccccc3nc2C(F)(F)F)CC1	1.38	4.5
Cc1c(C(=O)Oc2ccccc2F)sc2ncn(Cc3ccccc3F)c(=O)c12	1.07	1.14
COc1cccc(CNC(=O)C2CCCN(S(C)(=O)=O)C2)c1 (stereo not drawn)	1	0.121
COc1cccc(NC(=O)c2sc3ncn(CC(=O)Nc4ccc(C)c(Cl)c4)c(=O)c3c2C)c1	0.997	-0.0759
CN(Cc1ccccc1)c1nc(-c2ccccc2F)nc2ccccc12	0.893	-2.9
Cc1nc2ccc(S(=O)(=O)NC(C(=O)Nc3ccc(C(C)C)cc3)C(C)C)cc2s1 (stereo not drawn)	1.03	0.486
c1ccc2[nH]c(CSc3nc4ccccc4n3C3CCCCC3)nc2c1	0.665	-8.35
Cc1ccc(C2(c3ccc(C)cc3)CC2C(=O)NCc2cccnc2)cc1 (stereo not drawn)	0.805	-2.69
COc1ccccc1C(=O)NC(C)C(c1cccs1)N1CCN(c2ccccc2F)CC1 (stereo not drawn)	0.745	-2.7
COc1ccc(-c2nc3ncccn3c2Nc2ccc(OC)c(OC)c2)cc1	0.975	-0.273
Cc1cc(C)c(OCC(O)Cn2cnc3ccccc32)c(C)c1 (stereo not drawn)	0.482*	-9.74*
Cc1ccc(C(CC(=O)NCC2(c3ccccc3)CCCC2)c2ccccc2)c(O)c1 (stereo not drawn)	1.1	1.1
O=C(Nc1cccc(-c2nnc(-c3ccccc3)o2)c1)c1cccs1	1	0.0278
Cc1ccc(NC(=O)Cc2c(C(=O)O)[nH]c3ccc(Cl)cc23)cc1F	0.851	-1.2
Nc1nonc1-c1nc2ccccc2n1CC(=O)Nc1cccc(Br)c1	1.02	0.419
CC(C)(C)OC(=O)N1CCN(c2nc(-c3ccccc3)c3cc(Br)ccc3n2)CC1	0.963	-0.148
CC1CCN(c2c(NCc3ccc(C(=O)NCCc4ccc(Cl)cc4)cc3)c(=O)c2=O)CC1	0.984	-0.0904
CCOc1ccc(CCNC(=O)CN2CCN(Cc3cccc(C)c3)C2=O)cc1OCC	1.06	1.06
CCC(=O)N1CCc2cc(S(=O)(=O)Nc3ccc(Cl)cc3)ccc21	1.46	1.88

Gathered by group, the compounds so far containing bromine.
SMILES	CBX7 inh	CBX7 inh z-score
Nc1nonc1-c1nc2ccccc2n1CC(=O)Nc1cccc(Br)c1	1.02	0.419
CC(C)(C)OC(=O)N1CCN(c2nc(-c3ccccc3)c3cc(Br)ccc3n2)CC1	0.963	-0.148

(cont.)
SMILES	CBX7 inh	CBX7 inh z-score
Cc1cc(N2CCN(c3ncccn3)CC2)nc2ccc(NC(=O)c3cccnc3Cl)cc12	0.917	-3.7
COc1ccc(OC2C(=O)N(c3ccc(C)c(Cl)c3)C2c2ccc(OC)c(OC)c2)cc1 (stereo not drawn)	0.895	-0.37
N#Cc1nc(COc2ccccc2)oc1N1CCCCCC1	0.455*	-3.4*
O=C1CN(S(=O)(=O)c2ccc(F)c(F)c2)CC(=O)N1CCc1ccccc1	1.02	0.493
Cc1ccc(CNC(=O)COc2cc(=O)n(C)c3ccccc23)cc1	0.901	-1.63
Cc1ccc(-c2n[nH]c(=O)c3ccccc23)cc1S(N)(=O)=O	1.02	0.547
COc1ccc(-c2nc3ccccc3n2CCOc2ccccc2)cc1	0.893	-1.13
COc1cc2c(=O)c(S(=O)(=O)c3ccccc3)cn(CC(=O)Nc3cccc(C)c3)c2cc1OC	1.05	0.85
CCOC(=O)N1CCN(C(=O)c2cc3c(-c4ccc(OC)c(OC)c4)nn(C)c3s2)CC1	1.03	0.92
Clc1ccc(Nc2c(-c3ccsc3)nc3ncccn23)cc1	1.03	0.855
CC(=O)N1CCC2(CC1)CC(=O)c1cc(OCC(=O)NCc3ccc4c(c3)OCO4)ccc1O2	1.18	3.47
CCOc1ccc(CCNC(=O)c2cn(CC(C)C)c(=O)c3cc(OC)c(OC)cc23)cc1OCC	0.993	-0.00666
CCCNC(=O)c1ccc2c(c1)ncn2-c1cc(C)cc(C)c1	0.887	-1.96
Cc1c(C(=O)N2CCOCC2)nnn1-c1nonc1N	1.03	0.737
COc1ccc(NC(=O)CC2C(=O)N(c3ccc(C)cc3)C(=O)N2CCc2ccccc2)cc1 (stereo not drawn)	0.894	-0.992
Cc1ccccc1CN1C(=O)CSc2ccc(C(=O)NC3CCCc4ccccc43)cc21 (stereo not drawn)	1.23	2.26
O=C(NCCc1c[nH]c2ccccc12)c1ccc2c(c1)NC(=O)c1ccccc1S2	1.07	0.526
Cc1cc(Nc2cccc(F)c2)nc(-c2ccccc2O)n1	1.17	0.199
COc1ccc(-c2ccc(=O)n(CC(=O)NCCc3ccc(S(N)(=O)=O)cc3)n2)cc1	1.03	0.829
Clc1ccc(SCc2cn3cc(Cl)ccc3n2)cc1	0.782	-2.08
COc1cccc(C(=O)Nc2ccc3oc(-c4cccc(F)c4)nc3c2)c1	1.09	3.48
CC(NC(=O)Cn1c2c(c(-c3ccccc3Cl)cc1=O)CCC2)c1ccccc1 (stereo not drawn)	0.65	-4.82
COc1ccc(C(=O)Nc2c3c(nn2-c2cccc(Cl)c2)CS(=O)(=O)C3)cc1	1	0.0234
O=C1CN(C(=O)Cc2ccccc2)C(c2ccc(F)cc2)c2cc(F)ccc2N1 (stereo not drawn)	0.945	-0.231
CCCc1cc(C(=O)Nc2cccnc2)no1	1.05	0.594
Additional records follow.
SMILES	CBX7 inh	CBX7 inh z-score
COc1ccc(N2CCN(C(=O)CCc3c(C)nc4ncnn4c3C)CC2)cc1	1.08	1.62
CCOc1ccc(C2c3[nH]c4ccccc4c3CCN2C(=O)c2ccc(Cl)cc2Cl)cc1 (stereo not drawn)	0.561	-6.06
CCN1C(=O)CSc2ccc(C(=O)NCc3cccs3)cc21	0.987	-0.345
O=C(CSc1nc2ccccc2nc1Cc1ccc(F)cc1)Nc1ccc(F)cc1F	1.26	1.16
O=C(NCc1ccc(F)cc1)C1CCCN(S(=O)(=O)c2cccc3cccnc23)C1 (stereo not drawn)	1.02	0.681
O=S(=O)(c1ccccc1)c1nc(-c2cccs2)oc1SCc1ccc(F)cc1	0.93	-0.583
CCOC(=O)c1ccc2c(c1)N(Cc1cccc(C)c1)C(=O)c1ccccc1S2	0.994	-0.153
CCOC(=O)c1ccc(NC(=O)c2c(NCc3cccc(OC)c3)sc3c2CCC3)cc1	0.934	-1.3
COc1ccc(NC(=O)c2cc(-c3cccs3)nc3ccccc23)c(OC)c1	1.12	0.512
Cc1cc2ccccc2c(=O)n1CC(=O)NCCCN1CCN(C)CC1	1.04	1.03
COc1ccc(N2CCN(C(=O)c3cc4c(-c5cccc(OC)c5)nn(C)c4s3)CC2)cc1	0.724	-10.4
O=C(CSc1nnc(-c2ccccc2)o1)N1CCc2ccccc2C1	0.908	-2.44
Cc1cccc(NC(=O)CS(=O)(=O)c2nc(-c3ccccc3)cn2-c2cccc(Cl)c2)c1C	0.723	-2.79
CCCCCc1ccc(-c2ccc(C(=O)Nc3nnc(-c4ccccc4C)s3)cc2)cc1	1.08	1.66
CCOC(=O)c1ccccc1NC(=O)c1cn(CC)c(=O)c2cc(OC)c(OC)cc12	0.951	-0.412
COc1ccc(C(=O)Nc2ccccc2-c2nc3ccccc3[nH]c2=O)cc1	0.982	-0.456
CN(C)c1ccc(-c2nc3cc(NC(=O)c4ccccc4)ccc3o2)cc1	1.01	0.428
CCOC(=O)c1cnc2c(OC)cccc2c1Nc1ccc(OCC)cc1	0.858	-4.27
CCn1c(COc2ccc(C(C)(C)C)cc2)nc2ccccc21	0.675	-5.87
COC(=O)c1c[nH]n2c(NC3CCCCCC3)c(-c3cccc(C)c3)nc12	0.438*	-11.1*
Cc1nc(N2CCN(c3ccc(F)cc3)CC2)c2c(C)c(C)sc2n1	1.01	0.198
CC1CCN(C(=O)c2ccccc2NC(=O)c2cccc(S(=O)(=O)N3CCCCC3)c2)CC1	1.01	0.202
CCOC(CNC(=O)C1CCN(Cc2nc(-c3ccc(CC)cc3)oc2C)CC1)OCC	0.836	-2.51
CCCNC(=O)C1CCN(C(=O)c2cnn(-c3ccccc3)c2-n2cccc2)CC1	0.927	-0.167
CCCCn1nnc2c(=O)c3c(=O)n(C)c(=O)n(C)c3[nH]c21	1.03	1.02

In another format: entries from further up
structure | CBX7 inh | CBX7 inh z-score
Fc1cccc(Cn2c(SCc3ccccc3F)nc3ccncc32)c1 | 1 | 0.0442
Cc1cccc(C(=O)N2CC(=O)Nc3ccc(F)cc3C2c2ccccc2)c1 (stereo not drawn) | 0.972 | -0.795
COc1ccc(NC(=O)CC2C(=O)N(c3ccc(C)cc3)C(=O)N2CCc2ccccc2)cc1 (stereo not drawn) | 0.894 | -0.992

Full records from above. Screens in order: CBX7 inh, CBX7 inh z-score
O=[N+]([O-])c1ccc(-c2cn(-c3ccccc3NCc3ccccc3)cn2)o1 as listed: 0.483*, -6.66*
CC(=O)N1CCc2cc(S(=O)(=O)Nc3ccc(C)c(C)c3)ccc21 as listed: 1.04, 1.19
Cc1ccc(Cl)cc1N1CCN(c2nc3ccccc3nc2C(F)(F)F)CC1 as listed: 1.38, 4.5
Cc1ccc(C)c(NC(=O)CSc2nnc(Cc3cc(=O)[nH]c(=O)[nH]3)n2-c2cc(C)ccc2C)c1 as listed: 1.01, 0.0131

The results go on.
SMILES	CBX7 inh	CBX7 inh z-score
C=CCn1c(COc2ccc(C)cc2)nc2ccccc21	1.02	0.782
CCCCNC(=O)CN1CCN(Cc2ccc(F)cc2Cl)C1=O	1.05	1.14
O=C(CSc1nnc(Cc2cc(=O)[nH]c(=O)[nH]2)n1-c1ccccc1)N1CCc2ccccc21	1.19	0.789
CCOc1ccc(N2CC(c3nc4ccccc4n3C)CC2=O)cc1 (stereo not drawn)	0.953	-0.881
Cc1ccc2c(c1)-c1c(cnn1CC(=O)NCCN1CCOCC1)CO2	0.967	-0.887
COc1ccc(Cn2c(=O)[nH]c3cc(C(=O)N4CCN(c5ncccn5)CC4)ccc3c2=O)cc1	1	0.0789
Cc1cccc(OCC(=O)Nc2nnc(-c3cccs3)s2)c1	1.05	0.191
c1ccc(-c2noc(-c3cccc4ccccc34)n2)nc1	0.715	-1.26
CC1CCCCC1NC(=O)CCCc1cn(C)c2ccccc12 (stereo not drawn)	0.757	-4.81

3 structures from above, ordered by heavy-atom count, largest number first:
SMILES	CBX7 inh	CBX7 inh z-score
CC1CCCCC1NC(=O)CCCc1cn(C)c2ccccc12 (stereo not drawn)	0.757	-4.81
Cc1cccc(OCC(=O)Nc2nnc(-c3cccs3)s2)c1	1.05	0.191
c1ccc(-c2noc(-c3cccc4ccccc34)n2)nc1	0.715	-1.26
